GCN5L2 inh – GCN5L2 (KAT2A) acetyltransferase inhibition. Q92830. GCN5L2 HAT assay, ThioGlo1 CoA-SH fluorescence. Potency, µM (series often up to 58.9 µM), inactives show at the top dose activity change, negative = inhibition, actives largely listed as inhibitors. 0.21% of 390,000 active. AID 504327
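qHTS, 1536-well. 20nM enzyme, pH 7.5 HEPES/EDTA/Tween-20 buffer; 15 min compound preinc., RT. Start: 75uM H3(1-25), 70uM AcCoA, 50uM ThioGlo1. Read Ex340/Em540 at t=0 (autofluorescence flag) and t=20 min.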
FEN1 inh – blocks human flap endonuclease 1; 0.35% of 390,000 active; Potency, µM (series often up to 114 µM), for the others: at the highest dose activity change, negative = inhibition, usual class: inhibitors; AID 588795; Recombinant FEN1 flap cleavage, fluorescence, 15 min; P39748; note: nearly all actives have a fitted effect of over 65% in size
Target sequence (P39748 whole entry, looked up): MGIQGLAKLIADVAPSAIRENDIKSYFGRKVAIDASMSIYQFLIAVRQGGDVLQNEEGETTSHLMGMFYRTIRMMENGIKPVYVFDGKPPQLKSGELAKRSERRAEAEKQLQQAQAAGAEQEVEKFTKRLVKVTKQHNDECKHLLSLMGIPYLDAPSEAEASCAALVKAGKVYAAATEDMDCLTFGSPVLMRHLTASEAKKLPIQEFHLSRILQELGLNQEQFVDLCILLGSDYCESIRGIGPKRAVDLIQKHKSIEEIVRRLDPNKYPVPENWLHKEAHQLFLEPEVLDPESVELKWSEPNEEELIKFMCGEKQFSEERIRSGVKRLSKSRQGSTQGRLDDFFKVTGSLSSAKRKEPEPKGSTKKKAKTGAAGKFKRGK
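With each library titrated from low to high concentration, compounds met 10 nM FEN1 for 15 min at room temperature before 50 nM substrate was added; readings at 0 and 15 min fed four-parameter Hill curve fits.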
* = called active by the depositor; ? = inconclusive; / = no result given; & = joins results of further samples; [ ] = another dose, or the depositor's remark. Calls come from the whole dose curve; as a rule, active = well fitted curve in the direction sought with a large enough effect; inconclusive = small, poorly fitted or top-dose-only effect, or another doubt; inactive = no such curve, though single readings can be large; an effect the other way counts as inactive or inconclusive. % is set by controls: 0 for no effect and ±100 for the full control effect; potency is the fitted concentration of half-maximal effect.

SMILES	GCN5L2 inh	FEN1 inh
C=C[C@@H]1c2ccccc2N(S(=O)(=O)c2ccc(C)cc2)[C@H](c2ccc(C(=O)OC)cc2)C1(C#N)C#N	-6%	12%
O=C(NCCCN1CCOCC1)c1cc(-c2ccccc2)on1	4%	-3%
CCc1ccc(OCC(=O)N(Cc2ccccc2)C2CCS(=O)(=O)C2)cc1 (configuration not stated)	-2%	-14%
COc1nc(N)c(S(=O)(=O)c2ccc(C)cc2)cc1C#N	-13%	-1%
C=C(C)C(=O)Nc1cccc(C(C)=O)c1	-1%[0.501 µM]	34%
CCN(CC)CC(=O)Nc1ccc(/C(C)=N/NC2=NCCN2)cc1	-5%	-3%
Cc1ccc(C(=O)Nc2nnc(S(=O)(=O)N(C)Cc3ccc(F)cc3)s2)cc1	0%	17%
C=CCOC(=O)C1=C(C)NC(SCC(=O)Nc2ccccc2)=C(C#N)C1c1ccco1 (configuration not stated)	-5%	-5%
O=C(Nc1ccc(F)cc1)c1cccnc1NCCc1ccccc1	-12%	-18%
CS(=O)(=O)N(Cc1ccccc1)c1ccc(C(=O)N2CCOCC2)cc1	2%	8%
Cc1ccc(NC(=O)C2CCC(CNS(=O)(=O)c3ccc4c(c3)CCCC(=O)N4)CC2)c(C)c1 (configuration not stated)	23%	2%
O=C(c1ccc(Cl)cc1)N1CCN(C(=O)c2ccco2)CC1	-3%	-1%
O=C(Cn1nnc(-c2ccccc2Cl)n1)N/N=C/c1ccc(-c2cccc(Cl)c2)o1	41%[activator]	-3%
COc1ccc(/C=C(\C#N)C(=O)Nc2cc(S(=O)(=O)N3CCOCC3)ccc2N2CCCC2)cc1	-4%	16%
O=C(NCCCn1ccnc1)C(=O)NCC1OCCCN1S(=O)(=O)c1ccc(F)cc1 (configuration not stated)	0%	7%
Cc1cc(N2CCOCC2)nc2ccc(NC(=S)N3CCN(c4ccccc4)CC3)cc12	-3%	-3%
CC(C)(C)c1csc(SCC(=O)Nc2ccc(Cl)cn2)n1	-8%	-7%
CN(c1ccccc1)S(=O)(=O)c1cccc(C(=O)NC2CCCCC2)c1	-5%	10%
C#CCSc1nc2[nH]ncc2c(=O)[nH]1	-3%	13%
CC(C)(C)NC(=O)C(Cc1ccccc1)NS(=O)(=O)c1ccc2c(c1)CCC(=O)N2 (configuration not stated)	0%	-11%

Some of the entries so far, field by field:
> CCc1ccc(OCC(=O)N(Cc2ccccc2)C2CCS(=O)(=O)C2)cc1 (configuration not stated)
  GCN5L2 inh = -2%
  FEN1 inh = -14%

> C#CCSc1nc2[nH]ncc2c(=O)[nH]1
  GCN5L2 inh = -3%
  FEN1 inh = 13%

> CS(=O)(=O)N(Cc1ccccc1)c1ccc(C(=O)N2CCOCC2)cc1
  GCN5L2 inh = 2%
  FEN1 inh = 8%

> Cc1ccc(C(=O)Nc2nnc(S(=O)(=O)N(C)Cc3ccc(F)cc3)s2)cc1
  GCN5L2 inh = 0%
  FEN1 inh = 17%

(further entries)
SMILES	GCN5L2 inh	FEN1 inh
Cc1ccc(S(=O)(=O)Cc2ccc(C(=O)N3CCCC3)o2)cc1	-4%	-13%
CCn1ccnc1CN(C)C(=O)C1CCC(=O)N(Cc2cccc(F)c2)C1 (configuration not stated)	-1%	16%
O=C(NCc1ccc2c(c1)CCN2C(=O)c1ccncc1)c1ccccc1Br	3%	0%
CCN(CC)C(=O)c1sc(NC(=O)Cc2cccs2)c(C#N)c1C	-3%	15%
O=C(C[C@@H]1C/C=C\C[C@H](Cc2ccc(F)cc2)C(=O)OC[C@H]2CCCN2C1=O)NCCO	0%	7%
O/N=C/c1cn(-c2ccc(Cl)cc2)nn1	-2%	-3%
CCOC(=O)c1sc(N(C)C(C)=O)nc1C	39%[activator]	-2%
Cc1ccc2c(c1)NC(=O)C(CC(=O)NCCCN1CCN(c3cc(Cl)ccc3C)CC1)O2 (configuration not stated)	-8%	5%
O=C(C1CC2C=CC1C2)N1CCN(c2ccccc2)CC1 (configuration not stated)	-2%	-5%
O=C(CCNC(=O)c1ccccc1)Nc1nc2ccccc2s1	2%	20%
CCOC(=O)Nc1sc2c(c1C#N)CCCC2	-4%	-6%
O=C(NCC1CCCCC1)c1cccc(S(=O)(=O)NCc2cccnc2)c1	-3%	1%
CCCOc1ccc(N2C(=O)CC(N(CCc3ccc(OC)cc3)C(=O)/C=C/C(=O)O)C2=O)cc1 (configuration not stated)	0%	-13%
Cc1cccc(N(C(=O)CNC(=O)c2ccco2)C(C(=O)NC2CCCC2)c2ccncc2)c1C (configuration not stated)	-2%	4%
Cc1cccc(NC(=O)CCn2cnnn2)c1C	2%	-4%
Cc1ccc(NC(=O)COc2ncnc3cc([N+](=O)[O-])ccc23)cc1S(=O)(=O)N1CCOCC1	-1%	-16%
Cc1cccc(NC(=O)c2ccc(S(=O)(=O)C(F)F)cc2)c1C	0%	-6%
CCN(CC)S(=O)(=O)c1ccc(-c2nnc(SC)o2)cc1	-14%	-4%
O=C(CCNC(=O)C1CCN(S(=O)(=O)c2ccccc2)CC1)Nc1ccccc1	2%	1%
Cc1ccc2[nH]c(=O)c(CN(CCN3CCOCC3)C(=O)Nc3ccc(F)cc3)cc2c1	-3%	-14%
O=C(NCc1nnc(SCC(=O)N2CCOCC2)o1)c1ccccc1F	-4%	-1%
CCC(=O)NCCC(c1ccco1)c1ccccc1OC (configuration not stated)	0%	4%
C/C(=N\NC(=O)CNC(=O)C(c1ccccc1)c1ccccc1)c1ccccc1	64%[activator]	4%
O=S(=O)(c1ccc(OCC(O)CN2CCN(c3ccccc3O)CC2)cc1)N1CCOCC1 (configuration not stated)	4%	-4%
CC(Oc1ccc(Cl)cc1Cl)c1nc(-c2ccc(NC(=O)c3ccccn3)cc2)no1 (configuration not stated)	-3%	2%
COC(=O)[C@@]1(Cc2ccccc2)[C@H]2C(=O)N(Cc3ccccc3)C(=O)[C@H]2[C@H]2CN=C(SCc3ccccc3)N21	-9%	5%
CN[C@]1(C)[C@H]2CC[C@@H](C2)C1(C)C	5%[21.4 µM]	/
CCn1c(SCC(=O)Nc2nc(C)c(C(=O)OC)s2)nnc1C(C)C	-5%	0%
COc1cc(OC)c(OC)cc1CNC(=O)c1cc(S(=O)(=O)N2CCOCC2)ccc1F	-2%	0%
COc1ccc(N2CCN(C(=O)c3ccc(CS(=O)Cc4ccc(Cl)cc4)o3)CC2)cc1 (configuration not stated)	-3%	0%
c1cncc(-c2nc(NCCCn3ccnc3)c3ccccc3n2)c1	-2%	-8%
CC1=C(C(=O)OCC(C)C)C(c2cccs2)NC(=S)N1 (configuration not stated)	-5%	-1%
Cc1ccc(C(=O)CC(SCC(=O)O)c2ccc([N+](=O)[O-])cc2)cc1 (configuration not stated)	2%	26%
CCOC(=O)Cn1nc(C)c(NC(=O)COc2ccccc2[N+](=O)[O-])c1C	3%	4%
COc1cc(OC)cc(C(=O)N[C@H](C(=O)NNC(=O)c2ccc(Br)cc2)C(C)C)c1	0%	0%
CCSCc1nnc(SCC(=O)Nc2ccc(OC)cc2)n1C	19%	-2%
O=C(NCCc1ccccc1)c1ccc2c(c1)N(Cc1ccccc1)C(=O)c1ccccc1S2(=O)=O	-7%	-11%
COc1cccc(N2CCN(C(=O)c3cnc4c(-c5ccc(F)cc5)c(C)nn4c3C)CC2)c1	-12%	-15%
CC1CC1C(=O)Nc1cc(C(F)(F)F)ccc1N1CCOCC1 (configuration not stated)	1%	-15%
Brc1ccc(/C=N/Nc2ccc3ccccc3n2)cc1	-12%	-1%

Arranged by the number under FEN1 inh (largest number first): four of the compounds above
SMILES	GCN5L2 inh	FEN1 inh
COC(=O)[C@@]1(Cc2ccccc2)[C@H]2C(=O)N(Cc3ccccc3)C(=O)[C@H]2[C@H]2CN=C(SCc3ccccc3)N21	-9%	5%
CCC(=O)NCCC(c1ccco1)c1ccccc1OC (configuration not stated)	0%	4%
CC1=C(C(=O)OCC(C)C)C(c2cccs2)NC(=S)N1 (configuration not stated)	-5%	-1%
CC1CC1C(=O)Nc1cc(C(F)(F)F)ccc1N1CCOCC1 (configuration not stated)	1%	-15%

Following part:
SMILES	GCN5L2 inh	FEN1 inh
O=C(NCCc1ccccc1F)c1cccc2cccnc12	-8%	5%
CC(=O)Nc1ccc(Oc2ccc3nc(C)[nH]c3c2)cc1	-4%	-3%
Cc1ccc(CN2CCN(C/C(Cl)=C/c3ccccc3)CC2CCO)o1 (configuration not stated)	-3%	2%
Cc1ccc2ncnc(Nc3cccc(C(=O)O)c3)c2c1	-6%	-2%
Cc1ccc(C(=O)NCC(=O)OCCCOC(=O)CNC(=O)c2ccc(C)cc2)cc1	-16%	1%
CN(Cc1nc(-c2ccccn2)no1)S(=O)(=O)c1ccc(Br)cc1	-25%	-2%
c1ccc(-n2nnnc2-c2cnc(-c3cccnc3)nc2-c2cccs2)cc1	-4%	-22%
O=C(Cc1ccccn1)c1ccc(F)cc1	4%	-8%
Cc1ccc(C(=O)NC(=S)Nc2cccc(NC(=O)c3ccccc3Cl)c2)cc1[N+](=O)[O-]	-2%	-11%
Cc1ccc(C(=O)N/C(=C\c2ccc(-c3cccc([N+](=O)[O-])c3)o2)C(=O)NCCCN(C)C)cc1	-16%	-22%
O=c1cnnc(Nc2ccc(F)cc2)[nH]1	-1%	-2%
Cc1ccc(C)c(N2CCN(C(=O)c3ccc(CSc4nc5ccncc5[nH]4)cc3)CC2)c1	-4%	-15%
O=[N+]([O-])c1cccc(/C([O-])=C(/C(=S)Nc2cccc3ccccc23)[n+]2ccccc2)c1	-5%	-9%
O=C(OCC(=O)N1CCCCCC1)c1ccc(Cl)nc1	-2%	-7%
O=C(O)C1C(c2ccccc2)C(C(=O)OCCCO)C1c1ccccc1 (configuration not stated)	-1%	-11%
CC(C)=CC(=O)OCC(=O)Nc1ccc(Cl)cn1	-3%	-2%
CC(C)CCNC(=O)CN(Cc1ccc(F)cc1)C(=O)CCC(=O)Nc1ccccn1	-1%	11%
Cc1ccc(NC(=O)C2=C(O)c3ccccc3N(C)S2(=O)=O)cc1	-15%	0%
COc1ccc(-n2c(/C=C/c3cc(OC)c(OC)cc3OC)nc3cc4ccccc4cc3c2=O)cc1Cl	-1%	-1%
Cc1nn(Cc2ccccc2Cl)c(C)c1NC(=O)NC12CC3CC(CC(C3)C1)C2	-21%	1%

Look-ups from above.
Entry of `CN(Cc1nc(-c2ccccn2)no1)S(=O)(=O)c1ccc(Br)cc1` in FEN1 inh: -2%
Entry of `O=C(NCCc1ccccc1F)c1cccc2cccnc12` in GCN5L2 inh: -8%

(cont.)
SMILES	GCN5L2 inh	FEN1 inh
C=CCNC(=O)CN1CCC(c2nc3ccccc3[nH]2)CC1	-26%	-2%
N=C1/C(=C/c2cccn2CCOc2ccccc2)C(=O)N=C2SC=C(c3ccccc3)N12	-7%	0%
CC(OC(=O)c1cc(=O)[nH]c2ccccc12)C(=O)NC1CCCCC1C (configuration not stated)	1%	3%
CCOc1ccc(NC(C)=O)cc1	?	22%&13%
NC(=O)N/N=C/C=C/c1ccccc1	-5%	0%
O=[N+]([O-])c1ccc(-c2nc(NCc3ccccc3)c3ccccc3n2)cc1	26%	-2%
O=C(NC1CCCCC1)N1CCN(c2ncccn2)CC1	6%	-4%
COc1cc(NC(=O)c2cnc3c(-c4ccc(F)cc4)c(C)nn3c2C)cc(OC)c1	12%	-19%
Cc1ccc(C(C)C)c(OCC(=O)Nc2ccc(S(=O)(=O)Nc3onc(C)c3C)cc2)c1	0%	-1%
O=C(N/N=C/c1ccccn1)c1[nH]c2ccc([N+](=O)[O-])cc2c1-c1ccccc1	-4%	-5%
C[C@]12c3[nH]c4cc(-c5ccco5)ccc4c3CCN1C(=O)[C@@H](CC(=O)NCCN1CCOCC1)C[C@@H]2C(=O)N1CCOCC1	-4%	-3%
O=C(c1ccccc1)c1cccn1CC(=O)N1CCN(C2CCCCC2)CC1	-1%	-1%
COc1ccc(C2/C(=C(/O)c3ccccc3)C(=O)C(=O)N2C)cc1 (configuration not stated)	-7%	-3%
COc1ccc(/C=C(\NC(=O)c2ccccc2)C(=O)NCCN2CCOCC2)cc1	-7%	9%
Clc1cccc(-c2ccc(/C=N/n3cnnc3)o2)c1Cl	-6%	7%
CN(C(=O)N1CCN(c2ccccn2)CC1)c1ccccc1	0%	-4%
O=C(N/N=C\c1ccc(Cl)s1)c1cccs1	3%	-11%
CCOc1ccc(-c2nnn(CC(=O)NCc3ccc(C)cc3)n2)cc1	-7%	-9%
O=c1ccc2cc(S(=O)(=O)N3CCOCC3)ccc2o1	-1%	-3%
CCCCn1c(N)c(N(CCOC)C(=O)CCCc2nc3ccccc3s2)c(=O)[nH]c1=O	-7%	-1%
CC(C)=CCC/C(C)=C/CNC(=O)C[C@H]1C[C@H](C(=O)N2CCCCC2)[C@@]2(C)c3[nH]c4ccc(Cl)cc4c3CCN2C1=O	-3%	10%
Nc1nc(CSC(=S)N2CCN(c3ccccc3)CC2)nc(Nc2ccc(F)cc2)n1	3%	16%
C/C(=N\NC(=O)c1ccc([N+](=O)[O-])cc1)c1cc2ccccc2oc1=O	49%[activator]	-1%
CCCN(Cc1nnc(-c2cccs2)o1)C(=O)c1cccc(S(=O)(=O)N2CCOCC2)c1	-1%	0%
CN(C)c1ccc(CN(C(=O)COc2ccc(F)cc2)C2CCS(=O)(=O)C2)cc1 (configuration not stated)	-3%	5%
CO/N=C/c1cc([N+](=O)[O-])ccc1Sc1ccc(C)cc1	-5%	9%
CCc1nn(CC(=O)N2CCN(c3ccc(Cl)cc3)CC2)c(=O)c2cc3occc3n12	1%	11%

This is a subset; most or all hits stand in other tables.
